# Bioassay records (PubChem)
# GLA inh pH 4.5: qHTS Assay for Inhibitors of Human alpha-Galactosidase at pH 4.5; Alpha-galactosidase A (Homo sapiens), P06280; purified enzyme, 4-MU-alpha-Gal fluorescence, pH 4.5; activity change, negative = inhibition, % at 105 µM; 230,000 tested, under 10 active; AID 1467, 2008; inconclusive = small, poorly fitted or top-dose-only inhibition, or a rising curve; inactive = flat fitted curve, though single readings scatter; no compound was filed as active;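 also: 0% = full activity with enzyme and -100% = basal without enzyme; dose as in the result columns while the protocol names 77 µM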
# Target sequence (P06280 whole entry, looked up): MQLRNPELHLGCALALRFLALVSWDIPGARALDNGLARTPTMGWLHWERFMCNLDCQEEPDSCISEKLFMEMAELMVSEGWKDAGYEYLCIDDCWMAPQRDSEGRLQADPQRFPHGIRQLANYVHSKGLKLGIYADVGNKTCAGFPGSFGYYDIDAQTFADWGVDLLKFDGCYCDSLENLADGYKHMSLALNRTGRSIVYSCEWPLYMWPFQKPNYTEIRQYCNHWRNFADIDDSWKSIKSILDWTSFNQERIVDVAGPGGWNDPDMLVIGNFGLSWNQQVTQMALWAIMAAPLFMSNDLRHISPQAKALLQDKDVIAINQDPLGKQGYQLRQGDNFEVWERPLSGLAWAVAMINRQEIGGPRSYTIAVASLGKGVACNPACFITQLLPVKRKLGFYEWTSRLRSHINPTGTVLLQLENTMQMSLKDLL
# Rango release inh: qHTS Assay for Inhibitors of RanGTP induced Rango (Ran-regulated importin-beta cargo) - Importin beta complex dissociation | Snurportin-1 (Homo sapiens) + GTP-binding nuclear protein Ran (Homo sapiens) + Importin … | Biochemical FRET Rango-importin beta, RanGTP-induced dissociation | Potency, µM (series often up to 46.1 µM), inactives show at the highest dose activity change, negative = inhibition | 340,000 tested, 0.071% active | AID 540253, 2011; active means falling FRET ratio curve, often poorly fitted, with flat reads before Ran was added; inconclusive means other falling curves, or compound fluorescence or quenching; inactive means flat or rising ratio curve;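 also: potency is read from the fitted curve at half-maximal effect; % of control where 0% means no effect; nearly all actives have a fitted effect of over 45% in size; -100% = wells without RanGTP and RCC1; the record marks most hits as doubtful in a second field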
#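 Compounds preincubate 5 min with complex of recombinant Rango and importin beta in PBS with 1 mM DTT. Ran (0.6 uM) loaded with 2 mM GTP plus 0.2 uM RCC1 starts dissociation; FRET is recorded 45 min later.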
# Rango-impB inh: qHTS Assay for Inhibitors of Rango (Ran-regulated importin-beta cargo) - Importin beta complex formation; Potency, µM (top dose mostly 92.2 µM), for inactives: top-dose inhibition of complex formation; Importin subunit beta-1 (Homo sapiens), Q14974; 340,000 tested, 0.031% active; Rango CFP/YFP FRET sensor + importin beta, 45 min; active = rising FRET ratio curve, often small or poorly fitted; inconclusive = mostly compound fluorescence or quenching in the first reads; inactive = flat curves in all reads;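 also: potency is read from the fitted curve at half-maximal effect; 0% = DMSO wells and 100% = buffer wells lacking importin beta; nearly all actives have a fitted effect of over 15% in size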
#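 FRET biosensor Rango (snurportin 1 IBB between N-terminal EYFP and C-terminal Cerulean), 50 nM in PBS/1 mM DTT/0.02% Tween-20/0.1% BSA, preincubated 5 min RT with compound; 0.125 microM importin beta added, 45 min RT, CFP/YFP FRET ratio read.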
# miR-21 FLuc: qHTS Assay for Modulators of miRNAs and/orActivators of miR-21 | HeLa miR-21 FLuc reporter, luciferase, 48 h | Potency, µM (highest dose often 38.3 µM), inactives show top-dose reporter change, positive = more light | 340,000 tested, under 10 active; active = well fitted rising curve with a large enough effect; inconclusive = small, poorly fitted or top-dose-only effect; inactive = no such curve, though single readings can be large or run the other way;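 also: % of control where 0% means no effect; miR-21 action dims this reporter so a rising signal means less miR-21 action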
#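 Using DMEM plus 10% FBS, HeLa miR-21-FLuc cells are incubated with test compounds (final up to about 40uM) for 48 hours; firefly luciferase signal is then imaged following reagent-mediated lysis.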
# * marks the source's active call; other numbers are inactive results; ? = inconclusive; · = not tested or not shown; & = joins results of further samples. A portion of the library; the hit share may differ from the screen's.
SMILES,GLA inh pH 4.5,Rango release inh,Rango-impB inh,miR-21 FLuc
CCC(c1nnnn1CC1CCCO1)N(CCCO)Cc1cc2cccc(C)c2[nH]c1=O (configuration not stated),4,8%,-2.0%,0%
CCOP(=O)(OCC)C(NC(=O)Nc1cccc(Cl)c1)c1ccccc1 (configuration not stated),-10,-7%,3.9%,0%
Cc1cccc(N/N=C(\C#N)S(=O)(=O)C(C)(C)C)c1,-8,8%,2.4%,1%
CCCCc1nc2ccccc2c(NC(=O)CN2CCCC2)c1CCC,-5,2%,-0.5%,-5%
CC(=O)Nc1cccc(-n2nnc(SCC(=O)N(C)c3ccccc3)n2)c1,-1,16%,4.2%,1%
Cc1cc(NC(=O)CSc2nnc(-c3cccc(Cl)c3)o2)no1,·,-17%,-0.1%,0%
CCOC(=O)CC1COc2ccccc2N1C(=O)c1ccc(C)cc1 (configuration not stated),2,-1%,-2.4%,-7%
Cc1nnc(N/N=C\c2ccc(-c3ccccc3[N+](=O)[O-])o2)n1N,-12,3%,?,8%
CCN1C(=O)[C@@H]2[C@@H](c3ccc(-c4ccc(OC)cc4)c(OC)c3)N3CCC[C@@]3(C(=O)OC)[C@@H]2C1=O,·,0%,-3.8%,·
NC(=O)c1ccc(SCC(=O)OCC(=O)NCC2CCCCC2)c([N+](=O)[O-])c1,·,16%,-2.1%,·
COCCCN(C(=O)C1CCC1)c1c(N)n(Cc2ccccc2)c(=O)[nH]c1=O,·,-1%,-0.8%,·
Cc1cccc(C(=O)Nc2cccc3c2CCCC3)c1,·,1%,3.7%,-18%
CNC(=O)c1sccc1SCc1c(Cl)cccc1Cl,0,0%,-1.2%,1%
O=C(Nc1ccccc1)OCCCc1ccccc1,-1,-2%,-2.9%,-56%
CC1CCc2c(C(=O)NCC3CCCO3)csc2C1 (configuration not stated),1,28%,-3.3%,-36%
CCc1ccc2c(c1)C1(SC(NC(C)=O)=NN1C(C)=O)C(=O)N2CC (configuration not stated),6,3%,-0.2%,0%
CC(=O)N1CCc2cc(S(=O)(=O)CCC(=O)NCc3ccc(Cl)cc3)ccc21,·,-3%,?,14%&7%
CCN(CC(=O)NC1CCS(=O)(=O)C1)S(=O)(=O)c1cc([N+](=O)[O-])ccc1C (configuration not stated),·,11%,-2.2%,·
Cc1ccc2[nH]c(=O)c(CN(Cc3cccnc3)C(=O)c3ccncc3)cc2c1,6,-7%,2.7%,13%
CC(=O)Nc1ccccc1NC(=O)C/C(C)=N/NC(=O)C(=O)Nc1cccc(Cl)c1C,-2,-2%,-1.4%,-7%
CN1CCC(=O)N([C@H](CN=[N+]=[N-])Cc2ccccc2)CC1,·,1%,-1.9%,0%
CC(C)CNS(=O)(=O)c1ccc(OCC(=O)NCC2CCCO2)c(Cl)c1 (configuration not stated),-7,2%,3.0%,-4%
CCOC(=O)c1nnc2cc(-c3ccc(Br)cc3)nn2c1C,-4,39%,-1.6%,-16%
CCCCC(=O)Nc1ccc(NC(=O)c2ccccc2OC)cn1,-3,10%,1.8%,-21%
O=C(CCC(=O)N1CCN(c2ccccn2)CC1)c1cccs1,·,0%,-0.5%,·

# Exported tab-delimited: entries from further up
Molecule	GLA inh pH 4.5	Rango release inh	Rango-impB inh	miR-21 FLuc
Cc1ccc2[nH]c(=O)c(CN(Cc3cccnc3)C(=O)c3ccncc3)cc2c1	6	-7%	2.7%	13%
CC(=O)Nc1ccccc1NC(=O)C/C(C)=N/NC(=O)C(=O)Nc1cccc(Cl)c1C	-2	-2%	-1.4%	-7%
CN1CCC(=O)N([C@H](CN=[N+]=[N-])Cc2ccccc2)CC1	·	1%	-1.9%	0%

# Other structures follow:
SMILES,GLA inh pH 4.5,Rango release inh,Rango-impB inh,miR-21 FLuc
Cn1ccnc1SCC(=O)NC1CC1,3,3%,2.0%,2%
O=C(c1c[nH]c(C(=O)N2CCN(c3ccccc3F)CC2)c1)c1cccc(Cl)c1Cl,-4,19%,-4.0%,27%
Cc1cccc(CCNc2nc3ccccc3n3nnnc23)c1,8,-14%,-2.4%,0%
COC(=O)/C(=C\Nc1ccc(Cl)cc1Cl)NC(=O)c1ccc(OC)cc1,-1,10%,-1.9%,28%
NS(=O)(=O)c1ccc(CNC(=O)C23CC4CC(CC(C4)C2)C3)cc1,-9,-9%,0.1%,-13%
O=C(CC(=O)c1ccccc1)Nc1ccccn1,·,-17%,-0.6%,-50%
Cc1cc2ncn(C3CC(=O)N(Cc4ccc(N5CCCC5=O)cc4)C3=O)c2cc1C (configuration not stated),-1,-2%,-0.5%,0%
CCCCCn1c(N)c(C#N)c2nc3ccccc3nc21,?,?,?,-3%
O=C1CCCCC1C(=O)c1ccccc1 (configuration not stated),-4,-10%,-1.5%,-2%
O=C(NCc1ccccc1)C1(C(F)(F)F)C/C(=C/CCO)CCCO1 (configuration not stated),·,-1%,0.8%,·
COC(=O)c1sc(NC(=O)c2oc3ccccc3c2C)nc1C,-6,-19%,-1.1%,-17%
COC(=O)c1ccc(N2CCOCC2)c(NC(=O)Nc2cccc(OC)c2)c1,-3,-2%,?,-9%
CCOC(CNC(=O)c1ccc(CNC(=O)c2ccc(OC)c(OC)c2)cc1)OCC,-9,9%,-3.2%,0%
COc1nc(C)nc(NC(=O)NS(=O)(=O)c2ccc(C)cc2)n1,4,2%,-0.5%,-3%
COc1cccc(-c2nc(CS(=O)(=O)CC(=O)NCCCOC(C)C)c(C)o2)c1,1,1%,-3.5%,-5%
CC(C(=O)NCc1ccc2c(c1)OCO2)N1c2cccc3cccc(c23)S1(=O)=O (configuration not stated),?,2%,-3.0%,-7%
O=C(CN1CCN(c2ccccc2O)CC1)Nc1ccccc1C(=O)NCCc1ccccc1,·,5%,0.9%,·
Cc1cc(C)n(CCCNCC(O)c2ccccc2)n1 (configuration not stated),-2,10%&0%,-4.0%&-0.1%,-7%
O=C(NC(=S)N1CCCCC1)c1cccs1,7,1%,3.5%,0%
COc1cc(S(=O)(=O)Nc2ccccc2C)ccc1NC(=O)c1ccncc1,6,3%,0.6%,7%
CN(c1ccccc1)S(=O)(=O)c1cccc(C(=O)Nc2cccc(C(=O)NC3CC3)c2)c1,·,0%,-0.5%,·
COC(=O)CSc1nc(C)c(Oc2ccccc2)c(=O)[nH]1,0,8%,3.0%,-2%
O=C(Cc1csc(-c2ccccc2)n1)NCC(=O)Nc1ccc(F)c(F)c1F,·,-18%,1.8%,·
COCCNC(=S)N1CCC(NC(=O)c2ccco2)CC1,-2,-8%,-4.1%,-2%
CCN(C[C@H]1N[C@@](C)(C(=O)OC)[C@H]2C(=O)N(Cc3ccccc3)C(=O)[C@@H]12)C(=O)Nc1ccc(C)cc1,·,7%,-1.5%,·

# A draw from above in order of SMILES length, high to low.
SMILES,GLA inh pH 4.5,Rango release inh,Rango-impB inh,miR-21 FLuc
CCN(C[C@H]1N[C@@](C)(C(=O)OC)[C@H]2C(=O)N(Cc3ccccc3)C(=O)[C@@H]12)C(=O)Nc1ccc(C)cc1,·,7%,-1.5%,·
Cc1cccc(N/N=C(\C#N)S(=O)(=O)C(C)(C)C)c1,-8,8%,2.4%,1%
O=C(CC(=O)c1ccccc1)Nc1ccccn1,·,-17%,-0.6%,-50%

# Single values from the entries so far:
# Under Rango release inh, Cc1cc(C)n(CCCNCC(O)c2ccccc2)n1 (configuration not stated) is entered as 10%&0%
# Under miR-21 FLuc, O=C1CCCCC1C(=O)c1ccccc1 (configuration not stated) is entered as -2%

# The list continues:
SMILES,GLA inh pH 4.5,Rango release inh,Rango-impB inh,miR-21 FLuc
COCc1nnc(NS(=O)(=O)c2ccc(OC)cc2)s1,·,0%,-0.2%,·
COC(=O)c1ccc2c(c1O)C(=O)c1ccccc1C2=O,2,-10%,2.2%,-25%
COc1cc2c(cc1NC(=O)COC(=O)/C=C/c1ccc([N+](=O)[O-])cc1)oc1ccccc12,-6,30%,2.6%,-5%
Cc1ccc(SCCNS(=O)(=O)c2ccc3c(c2)OCCO3)cc1,-7,8%,1.8%,-10%
CCOc1cccc(-c2nnc(SCC(=O)NC3CC3)n2C)c1,·,0%,-3.3%,-1%
CC(C)Cn1c(N)c(C(=O)COC(=O)c2cc(C3CC3)nc3ccccc23)c(=O)n(C)c1=O,-10&-6,-24%,?,22%
O=C(CN1CCN(Cc2cccc(C(F)(F)F)c2)CC1)NCC(=O)Nc1ccc(F)c(F)c1F,·,3%,-1.2%,·
O=C(CSc1ccc2c(c1)OCCO2)Nc1ccc(Cl)cn1,-1,-2%,5.8%,2%
O=C(CSc1nc2ccccc2c(=O)[nH]1)N1CCN(c2ccccc2F)CC1,·,3%,0.1%,4%
CS(=O)(=O)Nc1nnc(C2CCCC2)s1,3,-4%,0.0%,-8%
Cc1ccc(S(=O)(=O)NCCOc2nc(N(C)C)nc(N3CCOCC3)n2)cc1,6,?,-1.7%,-8%
CN(Cc1ccccc1)C(=O)COC(=O)C1=NNC(=O)CC1,7,5%,0.0%,-2%
Cc1ccc(NS(=O)(=O)c2ccccc2F)cc1S(=O)(=O)N1CCCCC1,·,-2%,-4.9%,·
COc1ccc(N2C(=O)NC3CC2(C)Oc2ccccc23)cc1OC (configuration not stated),10,-2%,-0.1%,14%
Cc1ccc(C)c(NC(=O)CSc2nnc(CNC(=O)c3ccco3)o2)c1,·,15%,-7.0%,1%
c1ccc(-n2nnnc2-c2cnc(-c3cccnc3)nc2-c2cccs2)cc1,-3,-9%,-3.7%,-9%
CCOC(=O)c1cc2c(=O)n3cccc(C)c3nc2n(C)c1=N,28,·,·,2%
N#Cc1nc(-c2ccco2)oc1NCCc1ccccc1,2,-14%,-0.7%,-49%
C/C(=N\OC(=O)c1ccc(Br)cc1)c1ccccn1,-3,-3%,4.5%,3%
COc1ccc(CCNC(=O)c2nnn(CC(=O)Nc3ccc(C)cc3C)c2N)cc1OC,·,0%,-2.8%,-1%
CCCc1nnc(NC(=O)C(=O)NCCN(C)C)s1,3,46%,3.3%,-2%
Cc1cccc(N=C2NC(=O)S/C2=C\c2ccco2)c1,-2,?,?,-10%

# Complete entries as entered above:
# Record of O=C(CCC(=O)N1CCN(c2ccccn2)CC1)c1cccs1 → GLA inh pH 4.5 = ·; Rango release inh = 0%; Rango-impB inh = -0.5%; miR-21 FLuc = ·
# Record of COC(=O)CSc1nc(C)c(Oc2ccccc2)c(=O)[nH]1 → GLA inh pH 4.5 = 0; Rango release inh = 8%; Rango-impB inh = 3.0%; miR-21 FLuc = -2%
# Record of CCCCc1nc2ccccc2c(NC(=O)CN2CCCC2)c1CCC → GLA inh pH 4.5 = -5; Rango release inh = 2%; Rango-impB inh = -0.5%; miR-21 FLuc = -5%
